Screening results from PubChem.
Mtb H37Rv – M. tuberculosis H37Rv growth inhibitors, H37Rv strain (AID 1626) | 220,000 tested, 0.95% active | M. tuberculosis H37Rv growth inhibition; higher % means a stronger effect | one-dose inhibition, % at 10 µM; IC50 in µM for titrated hits;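 active = confirmed in a dose series; inconclusive = inhibition above 80% but not taken into the dose series; inactive = below 80% or under 30% at every dose of the series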;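 also: bacteria incubated seven days before Alamar blue readout; 0% = bacteria only wells and 100% = bacteria with antibiotic wells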
YopH PTP inh – YopH (Yersinia) phosphatase inhibition | fluorescence Ex485/Em525 | inhibition, %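 (about 10 µM by stock and volumes)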 | 140,000 tested, 0.16% active | AID 898;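 active = inhibition of 50% or more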;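 also: controls were vehicle for no effect and minimum signal wells for full effect; inactives centre near -20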
Arbovirus inh – blocks arbovirus infection | 200,000 tested, 0.37% active | inhibition, % at 10 µM | arbovirus infection cell-based antiviral screen;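 active = inhibition from about 30%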;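 also: bluetongue infection of BSR cells; cell survival read as ATP light after 72 h; 0% = infected wells without compound and 100% = uninfected wells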
Mtb betalactam – beta-lactam sensitization of Mtb H37Rv; inhibition, % at 25 µM; 330,000 tested, 0.27% active; M. tuberculosis H37Rv growth with meropenem, percent inhibition; hits of this screen are not shown here;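 active = about 74% or more and at least 40 points above the plate without the antibiotic, then above 30% in a dose series; inconclusive = first-round hits that could not be retested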;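 also: growth measured after seven days incubation then overnight dye step; 0% = bacteria only wells and 100% = bacteria with antibiotic; twin plates without the antibiotic show which effects depend on it; some results filed as inactive read as strong as hits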
RecA intein inh – Mtb RecA intein splicing inhibition; inhibition, %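 (about 9 µM by stock and volumes)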; 290,000 tested, 0.75% active; cell-free RecA intein splicing, fluorescence; P9WHJ3; in the data active = inhibition above about 30%; inconclusive = no clear call, values can overlap the other calls;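 also: 0% = vehicle wells and 100% = reference inhibitor control wells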
Target sequence (P9WHJ3 whole entry, looked up): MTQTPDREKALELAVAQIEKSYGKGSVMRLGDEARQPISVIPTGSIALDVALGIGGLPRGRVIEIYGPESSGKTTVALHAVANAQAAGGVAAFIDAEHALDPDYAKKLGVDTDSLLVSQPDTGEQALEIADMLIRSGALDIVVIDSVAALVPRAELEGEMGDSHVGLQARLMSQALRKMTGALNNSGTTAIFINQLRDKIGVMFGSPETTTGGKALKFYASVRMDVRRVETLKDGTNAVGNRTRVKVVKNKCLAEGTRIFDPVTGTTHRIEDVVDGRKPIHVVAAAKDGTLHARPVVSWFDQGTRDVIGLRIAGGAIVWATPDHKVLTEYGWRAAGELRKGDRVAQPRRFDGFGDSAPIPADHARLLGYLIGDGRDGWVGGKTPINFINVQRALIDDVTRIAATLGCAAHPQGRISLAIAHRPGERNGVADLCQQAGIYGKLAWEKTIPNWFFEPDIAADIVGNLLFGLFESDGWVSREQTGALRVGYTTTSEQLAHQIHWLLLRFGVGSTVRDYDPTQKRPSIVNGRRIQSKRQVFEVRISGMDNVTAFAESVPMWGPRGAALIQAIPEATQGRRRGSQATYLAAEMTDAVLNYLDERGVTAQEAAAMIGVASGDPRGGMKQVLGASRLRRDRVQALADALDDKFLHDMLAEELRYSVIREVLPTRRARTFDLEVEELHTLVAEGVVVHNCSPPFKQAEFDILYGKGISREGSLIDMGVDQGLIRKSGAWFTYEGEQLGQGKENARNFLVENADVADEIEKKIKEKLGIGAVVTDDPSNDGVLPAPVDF
Arbovirus inh repeat – also measured in Arbovirus inh; calls as there; inhibition, %; measured here: 10K subset replicate screen; many hits read low in the repeat;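 first of two repeat runs on a subset; 0% = infected and 100% = uninfected wells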
Starred values were filed as active, the others as inactive; ? = inconclusive; . = not tested or not shown.

SMILES | Mtb H37Rv | YopH PTP inh | Arbovirus inh | Mtb betalactam | RecA intein inh | others
O=c1[nH]c(=S)n(-c2cccc(Cl)c2)c(O)c1/C=N/N1CCOCC1 | 0.1% | . | . | 5.1 | -4.3
COc1ccc(NC(=O)CCc2nnc3ccc(NCc4ccc5c(c4)OCO5)nn23)cc1 | . | . | . | ? | 9.8
CCN1C(=O)/C(=C/N2CCc3ccccc32)SC1=S | 9.0% | -27.0 | -6.1 | 3.0 | -1.8
O=C(COc1coc(CN2CCc3ccccc3C2)cc1=O)Nc1ccc([N+](=O)[O-])cc1 | . | . | . | 2.0 | -1.8
CCCCn1c(SCN2C(=O)c3ccccc3C2=O)nc2cc(S(N)(=O)=O)ccc21 | 4.0% | -22.4 | 4.7 | . | 0.3
CC1(C)CC(=O)c2cnc(NC(=O)CSc3nc4ccccc4o3)nc2C1 | -0.9% | -24.5 | 1.6 | 4.1 | 0.9
CC(C)(C)c1nc2ccc(NS(=O)(=O)c3ccc(F)c(F)c3F)cc2[nH]1 | . | . | . | -5.1 | 1.0
O=C(c1cc(-c2cccc(O)c2)on1)N1CCN(C(c2ccccc2)c2ccccc2)CC1 | -1.1% | -26.2 | -29.4 | -8.2 | -1.3
COC(=O)c1nc(NC(=O)c2cc(OC)c(OC)c(OC)c2)n[nH]1 | . | . | . | 2.2 | 23.5
O=C(O)C1CC(c2cccc(Br)c2)=NO1 (configuration not stated) | -9.9% | 4.5 | 4.2 | 0.2 | -0.8
Cc1cccc(OCc2nnc(SCc3nc4ccccc4c(=O)[nH]3)o2)c1 | -10.1% | -9.5 | -5.2 | -11.8 | 2.8
Cc1cc(C)cc(NC(=O)c2ccc(S(=O)(=O)NCc3cccnc3)cc2)c1 | . | . | . | 3.8 | -3.5
COc1ccc(N2CCN(C3CCCN(S(=O)(=O)c4ccccc4)C3)CC2)cc1 (configuration not stated) | . | . | . | -21.6 | -2.7
O=C(Cn1nc(-c2ccccc2)ccc1=O)Nc1ccc(N2CCN(C(=O)c3ccccc3)CC2)cc1 | 26.7% | 7.6 | -1.6 | 96.2 | 3.2 | Arbovirus inh repeat=6.9
CCN1CCN(c2ccc(S(=O)(=O)N3CCCCC3)cc2NC(=O)c2ccc(F)cc2)CC1 | -1.8% | -24.9 | 5.8 | 0.7 | -2.1
COC(=O)C1(C)NC(=O)c2ccccc2N1 (configuration not stated) | -4.1% | -35.1 | 2.2 | 1.7 | 0.3 | Arbovirus inh repeat=3.7
O=C(c1n[nH]c(=O)c2ccccc12)N1CCN(Cc2ccc3c(c2)OCO3)CC1 | 2.4% | . | . | -9.1 | -1.2
Cc1ccc2c(c1)N=C(c1ccccc1)CC(C(Cl)Cl)=N2 | 0.8% | . | . | 54.9 | .
NS(=O)(=O)c1ccc(NC(=S)N2CCN(Cc3ccc(Cl)c(Cl)c3)CC2)cc1 | -0.8% | . | -13.2 | -3.4 | 5.6
CCCCCCCN1CCC(=O)N([C@H](CO)CC(C)C)CC1 | . | . | . | -1.9 | 5.7

Molecules from the list above with fluorine:
SMILES | Mtb H37Rv | YopH PTP inh | Arbovirus inh | Mtb betalactam | RecA intein inh | others
CC(C)(C)c1nc2ccc(NS(=O)(=O)c3ccc(F)c(F)c3F)cc2[nH]1 | . | . | . | -5.1 | 1.0
CCN1CCN(c2ccc(S(=O)(=O)N3CCCCC3)cc2NC(=O)c2ccc(F)cc2)CC1 | -1.8% | -24.9 | 5.8 | 0.7 | -2.1

Looked up by compound from the list above, 3 records:
SMILES | Mtb H37Rv | YopH PTP inh | Arbovirus inh | Mtb betalactam | RecA intein inh | others
O=C(c1n[nH]c(=O)c2ccccc12)N1CCN(Cc2ccc3c(c2)OCO3)CC1 | 2.4% | . | . | -9.1 | -1.2
COC(=O)C1(C)NC(=O)c2ccccc2N1 (configuration not stated) | -4.1% | -35.1 | 2.2 | 1.7 | 0.3 | Arbovirus inh repeat=3.7
Cc1cc(C)cc(NC(=O)c2ccc(S(=O)(=O)NCc3cccnc3)cc2)c1 | . | . | . | 3.8 | -3.5

Other records follow.
SMILES | Mtb H37Rv | YopH PTP inh | Arbovirus inh | Mtb betalactam | RecA intein inh | others
COc1cc(OC)cc(-c2nnc(SCC(=O)NCc3cccs3)o2)c1 | -8.0% | 2.1 | 5.5 | 13.4 | -2.4
O=C(c1ccc(OC2CCN(CCCc3ccccc3)CC2)cc1)N1CCCC1 | . | . | . | 3.7 | 0.5
CC(C)(CNC(=O)c1cccc(F)c1)CNC(=O)c1cccc(F)c1 | . | . | . | -0.4 | 1.7
C/C(CC(=O)Nc1ccc(Cl)cc1Cl)=N\NC(=O)c1cnccn1 | -7.2% | . | . | 26.4 | .
O=C(Oc1ccc(C(=S)N2CCOCC2)cc1)c1ccc(F)cc1 | . | . | . | 6.7 | -0.6
O=C1CCCN1c1cc(Cl)cc(Cl)c1 | -1.4% | . | 0.9 | -5.6 | -4.8
COc1ccc(OC(C)C(=O)Nc2cccc([N+](=O)[O-])c2)cc1 (configuration not stated) | 11.1% | -20.5 | 3.2 | 3.4 | -1.0
COC(=O)C1=C(C(C)=O)C(c2ccc(C)cc2)n2nnnc2N1 (configuration not stated) | -2.1% | -23.0 | -4.1 | -5.7 | -1.9
Nc1ccccc1-c1nc2ccccc2[nH]c1=O | . | . | . | -7.2 | -1.2
c1ccc(-n2nnc3c(N4CCOCC4)ncnc32)cc1 | -8.2% | -14.8 | -8.2 | ? | -0.6
CCc1ccc(OCC(=O)NC(=S)Nc2ccc(F)cc2)c(Br)c1 | 2.9% | -26.6 | 3.5 | 2.5 | -3.0
O=C(COC(=O)c1ccc[nH]c1=O)NC1CCCC1 | 1.6% | -2.3 | 12.0 | -4.6 | -1.7
Cc1nn(Cc2ccc(Br)cc2)c(C)c1NC(=O)c1nn(C)cc1Cl | -9.4% | -25.2 | 8.2 | -5.8 | 1.9
CC1CCN(CCCNc2cc(NCCO)c([N+](=O)[O-])c3nonc23)CC1 | . | . | . | 1.9 | 1.6
CC(NC(=O)CNC(=S)N(Cc1cccs1)C1CCCC1)c1ccccc1 (configuration not stated) | 7.6% | . | -3.9 | -9.0 | 3.8
Cn1c(=O)[nH]c(=O)c2c1nc(N1CCOCC1)n2CCN1CCOCC1 | -9.0% | -21.4 | 0.5 | -7.0 | 0.4
CSc1nc(-c2cccs2)c(C#N)c(=O)[nH]1 | -7.1% | . | . | -8.2 | -1.5
CN(C(=O)COc1cc(=O)n(C)c2ccccc12)c1cccc(Cl)c1 | -5.1% | -23.6 | -2.9 | -6.7 | -0.5
c1ccc(C2CC3CC4(CCCC4)N2O3)cc1 (configuration not stated) | -5.7% | -8.9 | 1.8 | -0.6 | 3.3
CCCCC1CCC(C(=O)OCC(=O)Nc2ccc(S(N)(=O)=O)cc2)CC1 (configuration not stated) | -1.7% | -25.7 | 8.0 | -0.4 | -7.9
OCC1CCCN(C(=S)Nc2ccc(Oc3ccccc3)cc2)C1 (configuration not stated) | 7.7% | . | -2.3 | -7.3 | 0.3
Cc1ccc(-c2nc(CS(=O)(=O)CC(=O)NCCCN3CCOCC3)c(C)o2)cc1 | . | . | . | 4.3 | -5.0
CC1(OC(=O)CCc2ccccc2)C(=O)C=C2C=C3CCCN3C=C2C1=O (configuration not stated) | 6.3% | . | . | 7.1 | -4.1
CC(C)c1ccc(C2CC(=O)c3cnc(N4CCc5ccccc5C4)nc3C2)cc1 (configuration not stated) | -5.0% | -35.2 | -6.7 | 5.0 | 0.8
CCN(CC)CCN1C(=O)C(=O)/C(=C(/O)c2ccc(S(=O)(=O)N3CCOCC3)cc2)C1c1ccc(C(C)(C)C)cc1 (configuration not stated) | . | . | . | -7.1 | -3.1
CCN(CC)S(=O)(=O)c1ccc(C(=O)OCC(=O)N2CCOCC2)cc1 | . | . | . | 0.4 | -0.5
c1ccc2nc(-c3nc4ccccc4o3)ccc2c1 | 7.8% | -49.4 | -14.8 | . | -0.9
COc1ccccc1CCNC(=O)CSc1nc(-c2ccco2)cc(C(F)(F)F)n1 | 0.6% | . | 2.7 | 0.4 | 0.1 | Arbovirus inh repeat=-3.9
CCC1(NC(C)=O)CC2CC1CC2NC(C)=O (configuration not stated) | -2.4% | -1.8 | 6.4 | -10.1 | -0.1
Cn1c(=O)c2c(nc(CN3CCN(C(=O)c4ccco4)CC3)n2Cc2ccc(Cl)cc2)n(C)c1=O | 3.5% | 12.4 | 10.2 | ? | 4.8
Cc1ccc(S(=O)(=O)Nc2ccc(NC(=O)/C=C/C(=O)O)cc2)cc1 | 0.4% | . | -0.5 | 0.7 | 0.8
Cc1ccc(C2C=C(c3ccccc3)Nc3ncnn32)cc1 (configuration not stated) | -5.6% | . | . | -16.8 | -259.4
Cc1nnc(N(C)C(=O)Cc2ccc3c(c2)OCO3)s1 | -3.1% | -88.0 | -6.1 | -7.7 | -4.4
COc1cc(C)c(Cl)cc1S(=O)(=O)NC1CC(C)(C)NC(C)(C)C1 | -4.6% | . | -12.0 | -3.5 | -0.4
O=C(NCc1ccc(Cl)cc1)c1ccc(N2CCCC2=O)cc1 | 3.0% | . | 4.8 | 2.3 | -1.6
COc1ccc(C(=O)N[C@H](C(=O)OCc2nc3ccsc3c(=O)[nH]2)C(C)C)cc1 | . | . | . | 0.4 | -0.5
CCSc1nsc(NC(=O)Nc2cccc(C(C)=O)c2)n1 | . | . | . | -3.8 | 2.9
CCN(CC)c1ccc(/C=N/NC(=O)c2cccc(S(=O)(=O)Nc3ccccc3OC)c2)c(O)c1 | 16.6% | -4.7 | -35.1 | 4.1 | -12.4
NC(=O)C1CCN(c2ncccc2[N+](=O)[O-])CC1 | 9.1% | . | 17.3 | -2.8 | -2.6
O=C(Cn1c(=S)[nH]c2ccccc2c1=O)N1CCc2ccccc2C1 | 4.3% | . | 6.7 | 0.4 | 0.8
CN(C)c1nc(N)nc(CSc2ncc(Cl)cc2Cl)n1 | 2.4% | -33.3 | 17.0 | 6.0 | 3.7
COc1cc(CNCc2ccccc2)ccc1OCC(O)c1ccccc1 (configuration not stated) | . | . | . | -2.5 | 0.1
O=C(Nc1ccc(C(F)(F)F)cc1)C1CCN(S(=O)(=O)c2ccc(N3CCCC3=O)cc2)CC1 | . | . | . | 5.3 | -0.2
COCCNC(=O)C(c1cccs1)N(C(=O)Cn1nnc2ccccc21)c1ccccc1 (configuration not stated) | 22.3% | 6.6 | 3.9 | -15.4 | 2.7
COc1ccccc1CNC(=O)CSc1ccc(-c2cccs2)nn1 | 5.3% | . | 13.6 | -4.6 | 2.4
O=C1C(=O)N(O)C2CCCCC2N1O (configuration not stated) | -1.3% | -31.6 | -7.3 | 1.1 | -1.1
Cc1nc2c(-c3ccc(F)cc3)c(C)nn2c(C)c1CCC(=O)Nc1ccccc1F | 3.0% | . | . | 1.5 | -7.0
Cc1ncc(C[n+]2csc(CCOC(=O)CC34CC5CC(CC(C5)C3)C4)c2C)c(N)n1 | -1.4% | -20.0 | -1.1 | -1.9 | 0.4
O=C(N=Nc1c(O)[nH]c2ccc(F)cc12)C1COc2ccccc2O1 (configuration not stated) | -4.5% | . | . | -6.8 | 2.1
CCOC(=O)c1c(C)nc(C)c(C(=O)OCC)c1-c1ccco1 | 2.3% | . | . | -2.5 | -0.8
O=C(C1CC1)N1c2ccccc2Sc2ccccc21 | . | . | . | -5.1 | 4.2
CC(Oc1ccc2ccccc2c1)C(=O)NNC(=O)Nc1ccccc1 (configuration not stated) | . | . | . | -0.4 | 1.6
COC(=O)c1cc(Cl)c(NC(=O)C(C)C)cc1OC | -0.6% | . | 1.1 | -2.4 | -5.8
C/C=C/c1ccc(OCC(O)CN2CCCCC2CC)c(OC)c1 (configuration not stated) | 2.6% | . | -18.9 | -6.0 | 0.0
Cc1ccc2nc(/C(C#N)=C/c3ccc(O)c(O)c3)[nH]c2c1 | . | . | . | 5.7 | -2.2
Cc1ccc(C(C)C)c(OCc2ccc(-c3nnco3)cc2)c1 | 5.8% | -58.9 | 9.5 | 81.2 | 1.4
COc1ccccc1NC(=S)N1CC(C)OC(C)C1 (configuration not stated) | 4.6% | . | 1.1 | -4.9 | 1.3
Cc1nc2ccc(Cl)cc2c(-c2ccccc2)c1C(=O)N(C)C | . | . | . | 6.9 | -1.0
CN(C(=O)c1ccnn1C)C1CCCN(Cc2ccccc2F)C1 (configuration not stated) | . | . | . | -4.2 | -0.6
C=C(C)[C@@H]1CCC2(C(=O)O)CC[C@]3(C)[C@H](CC[C@@H]4[C@@]5(C)CCC(=O)C(C)(C)[C@@H]5CC[C@]43C)[C@@H]12 (some centres not stated) | 11.5% | -23.7 | -34.7 | 0.2 | 6.6

Not all compounds are listed; rates above refer to the full screens.
